# ALR H2O2 inh – human ALR oxidase inhibition via reduced H2O2 | purified ALR, DTT oxidation, H2O2 HRP-luminol luminescence | AID 485317 | 3.8% of 290,000 active | inhibition, % (no concentration beside the values);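 active means mean and each replicate at 75% or more; inconclusive means only one of the two met; inactive means neither met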;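 further: stock transfer was 7.5 nL into about 7.5 µL; 0% = neutral wells and 100% = wells with inactivated enzyme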
# Target sequence (P55789 whole entry, looked up): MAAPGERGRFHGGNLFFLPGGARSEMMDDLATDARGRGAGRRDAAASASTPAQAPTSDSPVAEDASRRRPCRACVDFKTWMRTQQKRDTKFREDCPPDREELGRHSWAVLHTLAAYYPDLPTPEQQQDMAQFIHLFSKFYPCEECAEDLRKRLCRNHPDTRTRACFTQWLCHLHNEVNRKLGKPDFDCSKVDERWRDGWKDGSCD
# MLL AF4-AF9 inh – blocks AF4 peptide binding to human AF9 | AlphaScreen, biotin-AF4 peptide binding to FLAG-AF9 | inhibition, % at 10 µM | 0.47% of 350,000 active | AID 651704;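 active means every replicate reaching a set inhibition limit, whatever the replicate mean, cut at about 25% in these data; inconclusive means mean inhibition reaches that limit but some replicates miss it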;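 further: 0% = plate neutral control median and 100% = total signal loss; the record names both 10 and 1 µM as test concentration; the first replicate is given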
# Target sequence (P42568 whole entry, looked up): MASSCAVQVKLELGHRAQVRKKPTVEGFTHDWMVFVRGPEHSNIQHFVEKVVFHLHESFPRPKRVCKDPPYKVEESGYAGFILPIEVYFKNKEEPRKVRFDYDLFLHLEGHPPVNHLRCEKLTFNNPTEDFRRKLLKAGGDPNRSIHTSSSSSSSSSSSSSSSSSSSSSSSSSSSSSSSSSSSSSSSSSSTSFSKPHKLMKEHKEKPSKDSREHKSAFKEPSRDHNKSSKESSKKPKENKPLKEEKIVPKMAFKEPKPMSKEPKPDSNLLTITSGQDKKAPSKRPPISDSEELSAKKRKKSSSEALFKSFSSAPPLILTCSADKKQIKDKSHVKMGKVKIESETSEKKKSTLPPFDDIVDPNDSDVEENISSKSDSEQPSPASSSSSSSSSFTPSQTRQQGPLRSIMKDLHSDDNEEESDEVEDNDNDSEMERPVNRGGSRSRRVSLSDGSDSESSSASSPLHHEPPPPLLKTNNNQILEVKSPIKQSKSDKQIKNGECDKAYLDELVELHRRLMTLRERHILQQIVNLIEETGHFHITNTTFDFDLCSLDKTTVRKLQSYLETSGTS
# Vif TR-FRET – inhibitors of Vif binding to APOBEC3G peptide, primary screen, biochemical, TR-FRET, GST-Vif 1-94, biotin-A3G peptide, dose response retest (AID 1117319); TR-FRET GST-Vif / biotin-A3G peptide binding; higher % means a stronger effect; test concentration not given here; strong numbers were not always called active; one-dose inhibition, %; IC50 in µM for titrated hits; 0.57% of 260,000 active;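 active means above the screen mean plus three standard deviations and confirmed in dose response; inconclusive means results disagree or hit not tested in dose response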;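 further: Vif residues 1-94 fused to GST binding biotinylated APOBEC3G peptide 110-148; 0% = full assay without inhibitor and 100% = GST in place of GST-Vif; retest series ran down from 100 µM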
# Ecoli growth – inhibitors of Escherichia coli growth; OD600, 23 h; active compounds read low; OD600 absorbance (no concentration beside the values); 0.21% of 330,000 active;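 active means OD600 absorbance below the run mean of sample wells minus 3.6 SD, in any replicate, cut at about 0.56 in these data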;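 further: stock transfer was 300 nL into about 60 µL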
# FGF22 binding – FGF22 (human) thermal shift binding; Q9HCT0; recombinant FGF22 thermal shift, SYPRO orange fluorescence; percent of sucrose octasulfate shift, DMSO zero; AID 651658; 1.5% of 340,000 active; calls only at 9.99 µM;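 active means melting point raised past a set limit in the mean and every replicate; inconclusive means no clear call; three in four hits are not shown here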
# Target sequence (Q9HCT0 whole entry, looked up): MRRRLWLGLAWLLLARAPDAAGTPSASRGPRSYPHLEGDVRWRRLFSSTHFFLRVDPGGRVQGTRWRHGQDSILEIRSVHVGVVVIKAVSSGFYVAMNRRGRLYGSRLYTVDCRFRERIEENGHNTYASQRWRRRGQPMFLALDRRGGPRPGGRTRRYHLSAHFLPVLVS
# rRNA inh HTS – inhibitors of bacterial rRNA selective over humanized ribosomes | E. coli WT GFP vs humanized-ribosome RFP mutants, fluorescence, 24 h; active compounds read low; DMSO median 0, no signal -100 | GFP signal change (wild-type ribosome), % (no concentration beside the values) | 1.6% of 350,000 active;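 active means significant combined selectivity score with lowered wild-type GFP, culture density cut under 30%, mutant RFP and density less affected; inactive means any of these conditions unmet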; further: one replicate is shown; some compounds called inactive have numbers as strong as hits
# HNF4A DNA FP – change in binding of human HNF4 alpha to DNA | P41235 | HNF4a-FITC DNA binding, fluorescence polarization, 1 h | activity change, % at 10 µM | 0.3% of 360,000 active | AID 1224865; in the data active means activity change above about 30%, passing the limit was not always enough;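 further: controls were the assay level and a saturating level of protein; the project sought stronger binding though the title names inhibitors; some compounds called inactive have numbers as strong as hits; positive values seem to mean higher polarization but the record does not say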
# rRNA inh HTS OD600 – second read-out of rRNA inh HTS, no call of its own (marks repeat the call); OD600 change, %; measured here: OD600 growth;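 optical density of the mix in the first replicate; 0 = DMSO median and -100 = no signal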
# rRNA inh HTS RFP – recorded beside rRNA inh HTS, whose call it bears; RFP signal change, %; measured here: RFP humanized mutant strains;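 first replicate; 0 = DMSO median and -100 = no signal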
# Active calls of the source: *; i = inactive; ? = inconclusive; / = no result given; & = joins results of further samples. These rows are one share of the data (hit frequency here may not be typical).
item	mol	ALR H2O2 inh	MLL AF4-AF9 inh	Vif TR-FRET	Ecoli growth	FGF22 binding	rRNA inh HTS	rRNA inh HTS OD600	rRNA inh HTS RFP	HNF4A DNA FP
1	COc1ccc(S(=O)(=O)Nc2ccc3c(c2)CC(=O)N([C@H](C)CO)C[C@@H](C)[C@@H](CN(C)C(=O)Nc2ccc4c(c2)OCO4)O3)cc1	/	-0.6	/	/	i	0	-1	-1.5	/
2	CC(C)CCn1c(=O)c2c(nc3n2CCCN3Cc2ccccc2)n(C)c1=O	-4	5.9	0%	0.68	i	-8	1	-1.0	4.0
3	Cc1ccc(Nc2cc(=O)[nH]c(=O)[nH]2)cc1C	5	-2.6	?	0.66	/	14	1	-4.4	-0.4
4	NC(=O)CC(NC(=O)Cc1ccc(Br)cc1)c1ccc(N2CCC(N3CCCCC3)CC2)c([N+](=O)[O-])c1 (stereo not drawn)	-1	-1.4	/	0.7	i	0	9	1.2	-0.7
5	COc1ccc(/C=C2\Oc3cc(OCC(=O)N4CC(O)C[C@H]4C(=O)O)ccc3C2=O)c(OC)c1OC (stereo partly drawn)	9	-1.4	/	0.74	i	1	8	-5.4	1.1
6	COc1ccc(-c2ccc([C@@H]3[C@H](CO)N4CCCCN(C(=O)c5ccc6c(c5)OCO6)C[C@@H]34)cc2)cc1	/	4.2	/	/	i	-5	-47	4.9	/
7	NC1=NC(=O)/C(=C/c2ccsc2)S1	-2	-3.1	15%	0.61	i	13	1	11	-1.0
8	O=C(Cc1ccc([N+](=O)[O-])cc1)Oc1ccccc1	/	3.2	0%	0.7	i	-3	11	6.8	1.9
9	C[C@@H]1CN([C@H](C)CO)S(=O)(=O)c2ccc(C#Cc3ccc(F)cc3)cc2O[C@@H]1CN(C)C(=O)NC1CCCCC1	/	0.9	/	/	i	-3	-3	-2.1	/
10	CCCNc1ccc(S(=O)(=O)N(C(C)C)C(C)C)cn1	-31	/	/	0.62	/	/	/	/	-7.2
11	COc1ccc(NC(=O)N2CC3(C2)CN(C(C)=O)[C@@H](CO)c2[nH]c4cc(OC)ccc4c23)cc1	/	-0.1	/	/	i	3	11	-2.9	/
12	CCCCN1C(=O)C(CC(=O)NCCCCc2ccccc2)CC(C(=O)N(C(C)C)C(C)C)=C1C (stereo not drawn)	/	-1.5	/	/	i	-36	-62	13	0.2
13	O=C(Nc1cc(Cl)ccc1-n1cncn1)C1CC1	-5	1.4	2%	0.69	/	10	-4	1.2	3.4
14	COc1ccc(NC(=O)N[C@@H]2CC[C@@H](CCn3cc(-c4ccccn4)nn3)O[C@H]2CO)cc1	/	0.3	/	/	i	0	4	-1.8	/
15	O=C(O)C(Oc1ccc2c(c1)oc(=O)c1ccccc12)c1ccccc1 (stereo not drawn)	0	2.0	/	0.73	i	-27	-41	-8.6	-1.8
16	COc1ccc(S(=O)(=O)N(C)C[C@@H]2Oc3ccc(NC(=O)Cc4cn(C)c5ccccc45)cc3C(=O)N([C@@H](C)CO)C[C@H]2C)cc1	/	2.0	/	/	i	-1	5	-0.8	/
17	Cc1nc(SCC(=O)NC2CCS(=O)(=O)C2)c(C#N)c(C)c1C (stereo not drawn)	-5	2.5	-8%	0.69	i	5	1	1.3	2.2
18	Cc1noc(C)c1S(=O)(=O)N(C)C[C@@H]1Oc2ccc(NC(=O)CCCCCC(=O)Nc3ccccc3N)cc2CC(=O)N([C@@H](C)CO)C[C@@H]1C	/	-0.6	/	/	i	2	4	1.3	/
19	CN(CCNC(=O)c1cn(C)c2ccc(S(=O)(=O)N(C)C)cc2c1=O)CCc1ccccc1	2	-11	28%&-9%	0.74	i	9	12	3.7	-2.1
20	COCC1CCCN(Cc2nc(C(c3ccccc3)c3ccccc3)no2)C1 (stereo not drawn)	-12	2.3	-2%	0.64	i	-10	-22	-5.5	0.9
21	CN1C(=O)c2cc(NC(=O)NC3CCCC3)ccc2OC[C@@H]2O[C@@H](CC(=O)NC3CCC3)CC[C@@H]21	/	-1.2	/	/	i	2	-1	0.2	/
22	CCC(=O)N1CC(=O)N2[C@H](CO)[C@H](c3ccc(C#CCC(C)C)cc3)[C@H]2C1	/	-1.8	/	/	i	8	8	1.7	/
23	O=C(Nc1cccn(Cc2c(F)cccc2Cl)c1=O)NC1CCCCC1	/	6.4	/	0.64	i	72	-20	36	-1.8
24	CCn1c(C)[n+](CC)c2ccc(S(=O)(=O)N(C)C)cc21	-26	1.8	-1%	0.71	i	24	19	2.4	-0.1
25	CCCC(=O)Nc1cc(-c2nnc(OC)c3ccccc23)ccc1N1CCOCC1	-1	/	-10%	0.72	/	/	/	/	-0.1

# Some of the entries so far, with values under each structure.
# Results follow in this order: ALR H2O2 inh | MLL AF4-AF9 inh | Vif TR-FRET | Ecoli growth | FGF22 binding | rRNA inh HTS | rRNA inh HTS OD600 | rRNA inh HTS RFP | HNF4A DNA FP
4) NC(=O)CC(NC(=O)Cc1ccc(Br)cc1)c1ccc(N2CCC(N3CCCCC3)CC2)c([N+](=O)[O-])c1 (stereo not drawn)
    -1 | -1.4 | / | 0.7 | i | 0 | 9 | 1.2 | -0.7
5) COc1ccc(/C=C2\Oc3cc(OCC(=O)N4CC(O)C[C@H]4C(=O)O)ccc3C2=O)c(OC)c1OC (stereo partly drawn)
    9 | -1.4 | / | 0.74 | i | 1 | 8 | -5.4 | 1.1

# The list continues.
item	mol	ALR H2O2 inh	MLL AF4-AF9 inh	Vif TR-FRET	Ecoli growth	FGF22 binding	rRNA inh HTS	rRNA inh HTS OD600	rRNA inh HTS RFP	HNF4A DNA FP
26	Cc1ccc(Oc2ccccc2NC(=O)CN2C(=O)NC3(CCCC3)C2=O)cc1	4	-3.9	/	0.72	i	-1	0	-2.0	10
27	COc1ccccc1-n1ccnc(SCC(=O)NCc2ccccc2)c1=O	/	-1.8	-7%	0.71	i	14	4	-5.4	4.2
28	O=C(/C=C/c1ccccc1)N(Cc1ccc(Cl)cc1)C1CCS(=O)(=O)C1 (stereo not drawn)	35	6.7	10%	0.69	i	-22*	-13*	-0.1*	1.2
29	O=C(CSc1nnc(-c2ccccc2O)o1)NC1CCCCC1	/	0.0	/	0.67	i	-2	-19	0.7	1.6
30	O=C(Nc1ccccn1)C1CCN(C(=O)c2ccc(Cl)cc2)CC1	/	-0.6	/	/	i	-1	-1	4.6	-0.5
31	C[C@@H]1CN([C@H](C)CO)S(=O)(=O)c2ccc(-c3cccc(F)c3)cc2O[C@H]1CN(C)S(=O)(=O)c1ccc(F)cc1	/	-4.1	/	/	i	-2	-5	-1.9	/
32	O=C(CSc1cccc[n+]1[O-])Nc1cc(Cl)ccc1[N+](=O)[O-]	-6	-0.8	-5%	0.67	i	1	5	-0.6	0.5
33	Cc1ccccc1NCc1ccc([N+](=O)[O-])s1	/	7.7	/	0.61	i	-34*	3.2*	14*	1.6
34	O=C1Oc2ccccc2C2(O)C3CCCCCC3C12 (stereo not drawn)	3	/	9%	0.76	/	/	/	/	1.6
35	Cn1c(NCCN2CCCC2)nc2cc(-c3ccccc3)sc2c1=O	/	2.0	/	/	i	-3	-8	1.8	3.1
36	CC(=O)Nc1ccc(C(=O)OCC(=O)N2CCCC2=O)cc1	5	-3.1	/	0.66	i	12	6	0.5	-3.0
37	COc1cc(NC(=O)C2CC(=O)NC3=C2C(=O)CCC3)c(OC)cc1Cl (stereo not drawn)	0	-28	1%	0.67	i	-1	-5	-6.3	-1.4
38	NS(=O)(=O)c1ccc(CCNC(=O)c2ccc(Cl)s2)cc1	-1	2.2	2%	0.7	i	3	1	-0.2	-3.7
39	COc1ccc(NC(=O)N2CCCCN3[C@H](C2)[C@H](c2ccc(-c4ccccc4F)cc2)[C@@H]3CO)cc1	/	-12	/	/	i	-6	-26	11	/
40	COc1c2c(cc3c1C(CC(O)Cc1ccccc1)N(C)CC3)OCO2 (stereo not drawn)	-20	7.7	4%	0.61	i	5	1	1.1	3.3
41	CCOC(=O)c1ccc(NC(=O)c2nc[nH]c2C(=O)N2CCN(C(=O)OC(C)(C)C)CC2)cc1	/	6.8	12%	/	i	9	-4	17	/
42	O=[N+]([O-])c1ccc(N2CCN(C(=S)Nc3ccc(F)cc3F)CC2)cc1	-5	6.6	-4%	0.63	i	-30	-33	1.3	-0.1
43	C=C1C(=O)OC2CC1C(OC(C)=O)CC(C)=CCCC(C)=CCCC2(C)O (stereo not drawn)	/	-3.6	/	/	i	/	/	/	2.5
44	Cc1noc(C)c1NC(=O)N(C)C[C@H]1OCCCC[C@@H](C)Oc2ccc(N(C)C)cc2C(=O)N([C@H](C)CO)C[C@@H]1C	/	-2.5	/	/	i	5	-3	-2.9	/
45	CCc1nc2ccc(C(=O)NCCCN3CCCC3=O)cn2c1N(C)C(=O)COc1ccccc1	/	-1.1	/	/	i	0	14	-3.0	-0.8
46	COC(=O)c1ccc(Cn2cnc3c(N)ncnc32)cc1	/	-1.8	-1%	0.66	i	-3	-4	-3.7	-0.8
47	COc1ccc(N2CC(C(=O)OCC(=O)Nc3cc(C)on3)CC2=O)cc1 (stereo not drawn)	1	1.7	/	0.67	i	3	8	-3.2	-2.7
48	CSc1ccccc1NC(=O)Nc1cccc(Cl)c1	/	-1.4	1%	0.65	i	-28*	9.4*	-8.5*	-2.9
49	COc1ccc(C(C)=O)cc1CSc1nc2ccccc2o1	4	/	-8%	0.64	/	/	/	/	1.4
50	Cc1cc(C)nc(/N=C(\N)N2CCc3ccccc32)n1	4	0.2	13%	/	i	18	12	0.7	5.9
51	O=S(=O)(Nc1ccc(Cl)cc1)c1ccc2c(c1)CCO2	/	-4.9	/	0.71	i	-36	-31	-9.8	2.7
52	O=C(COc1ccc([N+](=O)[O-])cc1Cl)N1CCOCC1	-25	0.0	5%	0.61	i	6	5	1.9	0.7
53	CC1(C(=O)O)CCN1C(=O)/C=C/c1ccccc1 (stereo not drawn)	/	2.1	/	/	i	8	10	-0.3	-3.2
54	Cc1ccc(C(=O)NCCn2cc(SCC(=O)N3CCOCC3)c3ccccc32)cc1	44	-48	-5%	0.75	i	-5	-2	0.2	-1.4
55	C[C@H](NC(=O)c1ccccc1Cl)C(=O)OCCOc1ccc(Cl)cc1	/	2.8	-3%	0.69	i	-23	-20	-4.6	-1.1
56	O=C(CCN1CCCCC1)NCC[C@@H]1CC[C@H](NS(=O)(=O)c2cccc(F)c2)[C@@H](CO)O1	/	-0.4	/	/	i	-2	-2	-2.4	/
57	COc1ccc(N(CC(=O)NC2CC2)S(=O)(=O)c2ccccc2)cc1	/	0.1	-5%	0.67	i	1	2	-0.1	0.8
58	O=C(Nc1ccc(-n2cccc2)cc1)C1CC1	-2	4.9	?	0.66	i	9	7	4.9	-4.4
59	Cc1ccc(Nc2nc(Oc3ccc(OCc4ccccc4)nn3)nc(N3CCOCC3)n2)cc1	-9	/	13%	0.77	/	/	/	/	-3.1
60	CC(C)(C)NC(=O)NC(=O)COC(=O)CNS(=O)(=O)/C=C/c1ccccc1	-3	-1.5	/	0.71	i	6	-4	-0.9	-0.5
61	CCCNC(=O)N1C[C@@H]2[C@H](c3ccccc31)[C@H](CO)N2C(=O)Nc1ccc(F)cc1	/	0.3	/	/	i	2	8	-2.2	/
62	Cc1cccc(C)c1NC(=O)CNC(=O)C(C)N1CCN(c2cccc(Cl)c2)CC1 (stereo not drawn)	/	2.7	/	0.67	i	-22*	-14*	2.3*	2.4
63	Cc1ccccc1NCc1nc2ccccc2n1C	46	/	-1%	0.69	/	8	10	-1.4	-1.4

# As entered above:
# CC1(C(=O)O)CCN1C(=O)/C=C/c1ccccc1 (stereo not drawn) | rRNA inh HTS RFP = -0.3
# CCCNC(=O)N1C[C@@H]2[C@H](c3ccccc31)[C@H](CO)N2C(=O)Nc1ccc(F)cc1 | MLL AF4-AF9 inh = 0.3
# COc1ccc(N(CC(=O)NC2CC2)S(=O)(=O)c2ccccc2)cc1 | rRNA inh HTS OD600 = 2
